# Source: PubChem (National Center for Advancing Translational Sciences (NCATS))
# ClpP mod – qHTS Assay for Activators of ClpP; ATP-dependent Clp protease proteolytic subunit (Bacillus subtilis (strain 168)), P80244; AID 651965, 2013; Potency, µM (highest dose often 57.5 µM), inactives show at the highest dose activity change, negative = active; purified B. subtilis ClpP, FRET peptide cleavage, 20 min; hit rate 1.9% among 340,000; active = well fitted falling curve with a large enough effect; inconclusive = small, poorly fitted or top-dose-only effect; inactive = no such curve, though single readings can be large or run the other way; note: potency is the fitted concentration of half-maximal effect; the source files actives as falling curves though it sought activators and does not explain the sign; nearly all actives have a fitted effect of over 65% in size; many hits overshoot -100%
# Target sequence (P80244 whole entry, looked up): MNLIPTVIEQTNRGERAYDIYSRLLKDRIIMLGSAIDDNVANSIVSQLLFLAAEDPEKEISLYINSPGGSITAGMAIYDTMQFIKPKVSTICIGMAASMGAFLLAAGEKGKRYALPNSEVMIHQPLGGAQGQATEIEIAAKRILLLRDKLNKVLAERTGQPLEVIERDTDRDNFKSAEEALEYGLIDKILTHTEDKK
#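 ClpP 10 microg/mL final, pH 8 Tris/KCl buffer with BSA, glycerol, Tween-20; compound pinned in; FRET-FV substrate; RT 20 min; Ex320/Em430; ΔFRET vs ADEP 5.8 microM, DMSO, no enzyme.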
# PINK1 expr mod – PINK1 expression modulation. PINK1 immunofluorescence, high-content cytometry, 24 h. Potency, µM (highest dose often 76.6 µM), inactives show at the highest dose activation (PINK1 increase), usual class: activators. hit rate 0.2% among 410,000. AID 624263; active = well fitted activation curve with a large enough effect; inconclusive = small, poorly fitted or top-dose-only effect; inactive = flat fitted curve, though single readings scatter; cell line not stated here;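 note: potency is the fitted concentration of half-maximal effect; % of control where 0% means no effect; nearly all actives have a fitted effect of over 65% in size; a mitochondrial uncoupler was the plate control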
#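 Stable cell line, 250 cells/well, 12 h attachment; compounds pinned at 5 concentrations, 24 h; CCCP control. Fixed with nuclear dye, primary antibodies 12 h at 10 degrees C, secondary plus cell stain; laser-scanning cytometer read.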
# D2 ag – activates the human D2 dopamine receptor; P14416; DiscoveRx PathHunter D2 beta-arrestin, luminescence, 90 min; 100% = 57 uM dopamine signal; activation, % (no concentration beside the values); hit rate 0.084% among 360,000; AID 624465; in the data active = activation above about 40%; inconclusive = about 15% to 40%; inactive = below about 15%; note: compound concentration not given in the record; the text of the record calls up to 30% inactive
# Target sequence (P14416 whole entry, looked up): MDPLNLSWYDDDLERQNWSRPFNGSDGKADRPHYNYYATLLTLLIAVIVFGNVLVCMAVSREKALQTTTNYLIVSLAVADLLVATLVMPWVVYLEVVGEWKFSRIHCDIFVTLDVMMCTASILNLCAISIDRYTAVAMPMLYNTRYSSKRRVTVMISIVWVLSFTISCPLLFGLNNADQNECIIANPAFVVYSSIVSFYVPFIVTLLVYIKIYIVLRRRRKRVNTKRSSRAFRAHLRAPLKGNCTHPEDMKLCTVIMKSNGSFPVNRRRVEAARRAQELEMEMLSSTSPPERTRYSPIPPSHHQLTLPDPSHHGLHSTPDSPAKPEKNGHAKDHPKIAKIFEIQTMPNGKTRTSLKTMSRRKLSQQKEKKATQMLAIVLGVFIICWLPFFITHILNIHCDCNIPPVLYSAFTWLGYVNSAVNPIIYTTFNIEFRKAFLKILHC
#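 DiscoveRx PathHunter D2 beta-arrestin cells (2,100/well) attached overnight, then compound-stimulated 90 min at 37 C in HBSS/10 mM HEPES/0.1% Tween-20 buffer; beta-galactosidase complementation read by luminescence after 1 h at ambient temperature. Dopamine 57 uM final (EC100) as control.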
# gsp antagonist – gsp mutant antagonism | gsp-mutant cells, cAMP HTRF, 30 min; control for the full effect not named in the record | Potency, µM (series often up to 76.9 µM), without a hit: at the top dose activity change, negative = inhibition, most hits filed as inhibitors | hit rate 0.4% among 340,000 | AID 624288; active = falling curve of any shape with a large fitted effect; inconclusive = falling curve, mostly with a smaller effect; inactive = flat or rising curve; cell line not stated here;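 note: intracellular cAMP measured with PDE inhibitor Ro 20-1724 present during compound exposure; potency is the fitted concentration of half-maximal effect; % is set by controls: 0 for no effect and ±100 for the full control effect; nearly all actives have a fitted effect of over 65% in size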
#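 HTRF cAMP measurement after 30 min RT detection following 30 min, 37C compound treatment alongside […] (added as 300 uM solution) in G418-selected cells seeded at 2000/well and grown 16–24 h.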
# Menin MLL FP FL – inhibitors of human menin-MLL interaction, wild-type MLL peptide; Fluorescence polarization, fluorescein-MLL peptide displacement from menin; FP activity change, % at 61.4 µM; AID 1766; 290,000 tested, under 10 active; inconclusive = falling polarisation curve, or a change in total fluorescence; inactive = total fluorescence flat and polarisation flat or rising; no compound was filed as active; the % refers to the polarisation; negative = inhibition;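 note: % of control where 0% means no effect; inhibitors lower the polarisation; unlabelled MLL peptide was the positive control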
# gsp ag – gsp mutant agonism; gsp mutant cells, cAMP HTRF, 30 min; control for the full effect not named in the record; Potency, µM (top dose mostly 76.9 µM), without a hit: top-dose activation (cAMP increase), hits mostly activators; hit rate 0.13% among 340,000; AID 624287; active = well fitted activation curve with a large enough effect; inconclusive = small, poorly fitted or top-dose-only effect, or another doubt; inactive = no such curve, though single readings can be large or run the other way; cell line not stated here;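 note: phosphodiesterase inhibitor Ro 20-1724 added with compounds to block cAMP breakdown; potency is the fitted concentration of half-maximal effect; nearly all actives have a fitted effect of over 60% in size; about a fifth of the inactives were tested at one dose only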
#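 Cells in DMEM/10% FBS with G418 were pretreated with compounds in DMSO plus […] (300 uM stock) for 30 min at 37C. cAMP was measured by HTRF (cAMP-d2 plus anti-cAMP antibody-K) after 30 min at room temperature.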
# Sfp inh – inhibitors of Bacillus subtilis Sfp phosphopantetheinyl transferase; Q9F4F7; Biochemical Sfp PPTase activity, qHTS; Potency, µM, for inactives: max response, negative = inhibition, hits mostly inhibitors; hit rate 3.5% among 310,000; active = well fitted inhibition curve with a large enough effect; inconclusive = small, poorly fitted or top-dose-only effect, or another doubt; inactive = no such curve, though single readings can be large or run the other way;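 note: the enzyme is Sfp with the accession as filed and its product quenches rhodamine fluorescence; potency is the fitted concentration of half-maximal effect; 0% = enzyme reaction without inhibitor and -100% = no enzyme wells; top concentration of the series not given in the record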
#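 Reaction rates are the 30-min fluorescence difference (ex 525, em 598 nm) in wells containing 15 nM Sfp, 5 uM rhodamine-CoA and 12.5 uM BHQ-2-YbbR at pH 7.6 with 10 mM MgCl2.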
# The depositor's hits bear a star; u = inconclusive; x = no result given; [ ] = remark or other dose.
# Order of results: ClpP mod	PINK1 expr mod	D2 ag	gsp antagonist	Menin MLL FP FL	gsp ag	Sfp inh
- CC(C)CCNC(=O)C1C2C=CC3(CN(Cc4ccccc4Cl)C(=O)C13)O2 (stereo unspecified)
→ -0.6%	2.7%	-5.5	4%	1.1	1%	37%[activator]
- O=C(COC(=O)CCC(=O)c1ccc(F)cc1)Nc1cccc(S(=O)(=O)N2CCCC2)c1
→ 0.5%	-0.2%	-2.9	-5%	-1.0	3%	10%
- COC(=O)c1ccc(CNC(=O)CN(CCC(C)C)S(=O)(=O)c2ccc3c(c2)OCCO3)cc1
→ 0.5%	-3.8%	-2.4	-26%	-0.6	-1%	7%
- Cc1cccc(-n2cc[nH]c2=S)c1C
→ 0.9%	-0.3%	-0.6	8%	-1.2	-13%	-19%
- COc1cc[n+]([O-])cc1[N+](=O)[O-]
→ x	5.7%	1.1	3%	x	8%	x
- FCc1nc2nc(Cl)c(Cl)nc2[nH]1
→ -5.9%	-0.9%	-3.6	x	x	u	x
- c1ccc2c(c1)C1=NCCN1c1ccccc1-2
→ 4.0%	-2.1%	-2.4	x	x	20%	x
- CC(=O)n1cc(C(C[N+](=O)[O-])SCCN)c2ccccc21 (stereo unspecified)
→ -16%	-4.8%	-5.4	16%	2.9	-21%	20µM*
- Cc1ccc(S(=O)(=O)CC(=O)N2CCOCC2)cc1
→ -0.7%	0.4%	-0.6	-16%	0.8	15%[15.4 µM]	-2%
- Nc1nc2c(nc(Br)n2[C@@H]2O[C@@H]3COP(=O)(O)O[C@H]3[C@H]2O)c(=O)[nH]1
→ -3.3%	0.2%	-3.6	3%	x	x	x
- Cc1ccc(C(=O)Nc2nnc(-c3ccncc3)s2)o1
→ u	u	3.8	u	1.5	u	15%
- CCCC1(C(=O)OCC)NC(c2ccco2)C2C(=O)N(C)C(=O)C21 (stereo unspecified)
→ -2.2%	0.6%	-3.1	3%	-10	-9%[15.4 µM]	24%
- Cc1cc(C(=O)N/N=C/c2cccn2C)n[nH]1
→ x	9.0%	-2.0	-6%	2.7	-2%[15.4 µM]	8%
- O=C(NCCCN1CCOCC1)c1ccccc1NS(=O)(=O)c1ccc(F)cc1
→ x	0.2%	-4.0	x	-0.4	1%[15.4 µM]	-6%
- Cc1cccc(C)c1OCC(O)CNC(C)c1ccccc1 (stereo unspecified)
→ -3.0%	6.7%	-7.7	10%	-3.7	12%[15.4 µM]	3%
- Cc1ccc(S(=O)(=O)N2CCN(CCc3ccncc3)CC2)cc1
→ x	-0.4%	-0.7	2%	x	-59%[inhibitor]	x
- CCOC(=O)[C@@H]1[C@H]2COc3cc(OC)ccc3[C@@H]2N2C(=O)N(c3cccc(F)c3)C(=O)[C@]12C
→ 0.0%	3.5%	-0.9	6%	5.9	x	6%
- Cc1ccccc1OCCCC(=O)Nc1ccc2c(c1)OCO2
→ -5.2%	0.0%[38.3 µM]	1.6	-3%	1.1	-37%[inhibitor]	-16%
- Cc1cc(N2CCN(C(=O)c3ccoc3)CC2)n2nc(-c3ccccc3)cc2n1
→ -20%	2.5%	-9.4	x	x	-170%[inhibitor]	x
- CC(C(=O)NCc1cccs1)N1CCN(S(=O)(=O)c2ccc3c(c2)OCCCO3)CC1 (stereo unspecified)
→ -1.4%	1.5%	1.0	-17%	x	2%	x
- COc1cccc(N2C(=O)C(O)=C(C(C)=O)C2c2ccc(OC)c(OC)c2)c1 (stereo unspecified)
→ 0.1%	-1.5%	-0.6	1%	0.4	11%	-16%
- Cc1cc2c(cc1C)N(C(=O)CCl)CCN2C(=O)CCl
→ 2.0%	0.7%	0.2	-22%	x	4%[15.4 µM]	x
- O=c1oc(-c2ccccc2NS(=O)(=O)c2ccccc2)nc2ccccc12
→ -4.6%	3.0%	-4.3	4%	-0.9	0%	9%
- CC(C)(C)NC(=O)NC(=O)COC(=O)c1cc[n+]([O-])cc1
→ x	0.5%	-0.4	11%	-0.8	1%	13%
- Cc1ccc(-n2nc(C)c(=O)c(-c3ccccc3)c2NC(=O)c2cccs2)cc1
→ 1.7%	0.3%	4.4	-12%	4.7	30%	1%
- COc1cc2c(cc1OC)C(c1cccc(C)c1)CC(=O)N2 (stereo unspecified)
→ 1.5%	1.5%	1.7	-6%	4.3	24%	6%
- Cc1onc(-c2c(F)cccc2Cl)c1C(=O)Nc1ccc(S(=O)(=O)Nc2ncccn2)cc1
→ -1.3%	4.7%	1.6	-9%	-0.7	-3%	-1%
- O=C(CCCc1ccccc1)Nc1nnc(C(F)(F)F)s1
→ x	23%	1.4	-16%	-0.1	-9%[15.4 µM]	-1%
- CCCOc1ccc(N2CC(C(=O)Nc3ccccc3C(=O)NC)CC2=O)cc1 (stereo unspecified)
→ -3.4%	1.3%	-2.9	-15%	-3.0	-45%[inhibitor]	8%
- CCOC(=O)N1CCN(C(=O)C(c2ccccc2)c2ccccc2)CC1
→ 1.1%	4.2%	3.9	-6%	2.4	-6%	4%
- COc1ccc(C2CC(=O)Oc3cc(OC)c(OC)c(OC)c32)cc1 (stereo unspecified)
→ 0.8%	2.9%	0.5	2%	2.7[94.6 µM]	x	-15%
- CC(C)(C)S(=O)N1Cc2cc(CO)cc(CCO)c2[C@@H]1CCO (stereo partly specified)
→ 0.3%	1.5%	-2.5	9%	x	x	x
- Fc1ccccc1NC(=S)N(CCCN1CCOCC1)Cc1cccnc1
→ x	-0.7%	0.2	-10%	1.0	9%[15.4 µM]	17%
- COc1ccc(-c2nc3n(n2)C(c2ccccc2)C2=C(CCCC2=O)N3)cc1OC (stereo unspecified)
→ -21%	0.1%	-0.3	4%	-0.6	-25%	8%
- CCOc1ccc(S(=O)(=O)NCCN2CCOCC2)c2ccccc12
→ -9.6%	x	1.0	4%	-1.4	-18%	79µM*
- Cc1nc2c(-c3ccc(F)cc3)c(C)nn2c(C)c1CCC(=O)N1CCN(c2ccccn2)CC1
→ 0.1%	2.6%	1.8	-6%	-1.5	1%	26%
- O=[N+]([O-])c1ccccc1OCCCOc1cccc2cccnc12
→ x	7.8%	-4.5	-1%	-3.1	-55%[inhibitor]	-3%
- O=C(C1CCCCC1)N1C[C@@H](n2cc(-c3ccc(F)cc3)nn2)[C@H](O)C[C@@H]1c1ccc(Cl)cc1
→ -0.8%	2.9%	-7.4	x	x	-9%	x
- CCN1CCN(C(=O)C(C)Nc2cc(Cl)c(OC)cc2OC)CC1 (stereo unspecified)
→ x	-1.5%	-5.2	-5%	u	-8%[15.4 µM]	-7%
- CC1=NN(C(=O)CCc2ccc3c(c2)OCO3)C(O)(C(F)(F)F)C1 (stereo unspecified)
→ 0.6%	3.9%	-0.8	2%	-3.1	14%	0%
- S=C(Nc1ccc(Cl)cc1)NC1CC2CCCC(C1)N2C1CCCC1 (stereo unspecified)
→ -3.3%	-0.9%[38.3 µM]	0.0	7%	-1.2	11%	0%
- Cc1ccccc1NC(=O)c1ccc(-c2ccc(Cl)cc2Cl)o1
→ u	5.6%	-0.2	u	-0.6	19%	u
- O=S(=O)(NCCN1CCCC1)c1ccc(C(F)(F)F)cc1
→ 2.4%	1.8%	-3.2	7%	-1.1	u	12%
- O=C(Nc1ccccc1)C1CC(=O)n2ncnc2N1 (stereo unspecified)
→ 0.8%	4.6%[38.3 µM]	-0.1	1%	0.0	-1%	11%
- CN(C)S(=O)(=O)c1ccc(N2C(=O)CC2(/C=C/c2ccccc2)C(=O)NC2CCCC2)cc1 (stereo unspecified)
→ 3.5%	0.6%	-1.6	22%	0.0	27%	-1%
- Cc1ccc(C(=O)O)cc1-n1c(=O)n(Cc2ccccc2)c(=O)c2[nH]cnc21
→ -2.2%	-1.6%	0.1	-20%	5.8	-3%[15.4 µM]	11%
- COc1ccccc1NC(=O)c1cc2ccccc2o1
→ -2.1%	-0.8%	1.0	2%	3.5	19%	6%
- CCN(CC)CCNC(=O)c1ccc(NC(=O)c2ccc(COc3ccccc3)cc2)cc1
→ -1.2%	0.5%	-1.0	6%	x	-32%[inhibitor]	-23%
- O=C(Nc1sc2c(c1-c1nc3ccccc3[nH]1)CCCC2)C1CC1
→ u	5.1%	-2.6	3%	7.3	-42%[inhibitor]	11%
- CC(C)OC(=O)c1cccc(NC(=O)CSc2nnc(N)s2)c1
→ 1.0%	1.9%	-4.7	7%	-0.3	-2%[15.4 µM]	21%
- COc1cccc(CNC(=O)COc2cccc(-n3cnnn3)c2)c1
→ -3.9%	1.5%	-8.8	-3%	x	21%[15.4 µM]	x
- CSCCC1NC(=O)N(CC(=O)Nc2ccc(Br)cc2Br)C1=O (stereo unspecified)
→ -0.3%	0.9%	-4.5	2%	0.0	0%	10%
- CCOC(=O)C1CCN(c2c(NCc3ccc(C(=O)NC4CCCC4)cc3)c(=O)c2=O)CC1
→ -1.2%	-0.1%	-4.4	-4%	3.0	0%	0%
- O=C(/C=C/c1ccccc1)OCc1cnc(Cl)s1
→ -3.5%	-0.4%	-5.6	8%	-7.1	23%	9%
- COc1ccccc1CNC(=O)c1cn(C)c(=O)c2cc(OC)c(OC)cc12
→ -15%	11%	-2.5	5%	7.6	-1%	-4%
- CCSc1nc2sc3c(c2c(=O)n1CC)CCC3
→ -3.3%	-0.2%	-0.1	-1%	0.9	-28%	-7%
- COC(=O)C(C)(C)ONC(=O)Nc1ccccc1
→ -8.3%	1.1%	-2.2	7%	2.5	-26%	12%
- Cc1ccc(S(=O)(=O)Nc2ncc(C(F)(F)F)cc2Cl)cc1
→ x	-0.3%	-0.8	6%	0.1	0%[15.4 µM]	17%
- O=C(/C=C/c1cccc(F)c1)N1CCN(c2ccccn2)CC1
→ x	0.5%	1.8	0%	0.2	-11%[15.4 µM]	15%
